Compound activity from PubChem.
Sfp PPTase inh: qHTS Assay for Inhibitors of Bacillus subtilis Sfp phosphopantetheinyl transferase (PPTase); Biochemical Sfp PPTase activity, qHTS; Potency, µM, for the others: max response, negative = inhibition, actives largely listed as inhibitors; 3.5% of 310,000 active; active = well fitted inhibition curve with a large enough effect; inconclusive = small, poorly fitted or top-dose-only effect, or another doubt; inactive = no such curve, though single readings can be large or run the other way;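 also: the enzyme is Sfp with the accession as filed and its product quenches rhodamine fluorescence; potency is read from the fitted curve at half-maximal effect; 0% = enzyme reaction without inhibitor and -100% = no enzyme wells; top concentration of the series not given in the record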
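Buffer: 50 mM Hepes-Na pH 7.6, 10 mM MgCl2, 0.01% Nonidet P-40, 0.01% BSA. Enzyme 15 nM, pre-exposed to compound 15 min; substrates then added and fluorescence change tracked over 30 min.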
Menin MLL FP FL: qHTS Assay for Inhibitors Targeting the Menin-MLL Interaction in MLL Related Leukemias: Competition With Fluorescein Labeled MLL-derived Peptide; FP activity change, % at 61.4 µM; 290,000 tested, under 10 active; Fluorescence polarization, fluorescein-MLL peptide displacement from menin; inconclusive = falling polarisation curve, or a change in total fluorescence; inactive = total fluorescence flat and polarisation flat or rising; no compound was filed as active; the % refers to the polarisation; negative = inhibition;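 also: % of control where 0% means no effect; inhibitors lower the polarisation; unlabelled MLL peptide was the positive control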
gsp antagonist: qHTS for Antagonists of gsp, the Etiologic Mutation Responsible for Fibrous Dysplasia/McCune-Albright Syndrome: qHTS; 0.4% of 340,000 active; gsp-mutant cells, cAMP HTRF, 30 min; control for the full effect not named in the record; Potency, µM (series often up to 76.9 µM), for inactives: top-dose activity change, negative = inhibition, hits mostly inhibitors; active = falling curve of any shape with a large fitted effect; inconclusive = falling curve, mostly with a smaller effect; inactive = flat or rising curve; cell line not stated here;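 also: intracellular cAMP measured with PDE inhibitor Ro 20-1724 present during compound exposure; potency is read from the fitted curve at half-maximal effect; % is scaled to controls: 0 for no effect and ±100 for the full control effect; nearly all actives have a fitted effect of over 65% in size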
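Cells in G418 medium, seeded 16-24 h, 37C; buffer exchange to DPBS + 1 mM CaCl2, 0.5 mM MgCl2, 0.05% BSA; cpds in DMSO + […] (300 uM stock), 30 min 37C; HTRF cAMP detection.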
D2 potentiator: Beta-Arrestin HTS for Positive Allosteric Modulators of the Human D2 Dopamine Receptor: Potentiators; D(2) dopamine receptor (Homo sapiens), P14416; potentiation, % (no concentration beside the values); AID 624464, 2012; DiscoveRx D2 beta-arrestin cells, luminescence, 90 min; 100% = 57 uM dopamine signal; 0.23% of 360,000 active; active = potentiation of 50% or more; inconclusive = 30% to 50%; inactive = 30% or less;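 also: compound concentration not given in the record; tested on top of an EC20 dose of dopamine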
Target sequence (P14416 whole entry, looked up): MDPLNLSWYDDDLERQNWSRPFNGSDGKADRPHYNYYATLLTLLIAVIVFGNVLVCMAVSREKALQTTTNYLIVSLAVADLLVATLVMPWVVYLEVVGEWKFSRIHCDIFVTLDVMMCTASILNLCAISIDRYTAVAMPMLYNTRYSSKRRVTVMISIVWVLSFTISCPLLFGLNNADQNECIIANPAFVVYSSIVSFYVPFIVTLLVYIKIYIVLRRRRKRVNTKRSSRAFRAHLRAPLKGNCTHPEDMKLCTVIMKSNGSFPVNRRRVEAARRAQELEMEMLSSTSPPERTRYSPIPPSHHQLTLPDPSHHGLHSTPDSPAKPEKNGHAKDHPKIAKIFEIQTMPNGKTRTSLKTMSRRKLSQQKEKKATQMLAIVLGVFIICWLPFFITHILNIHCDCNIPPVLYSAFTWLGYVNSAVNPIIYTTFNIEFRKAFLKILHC
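PathHunter beta-arrestin assay in DiscoveRx D2 cells. Compounds were added with an EC20 of dopamine (50 nM final) for 90 min at 37 deg C. Luminescence was read 1 h after detection reagent, with 57 uM dopamine as the EC100 control.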
ClpP mod: qHTS Assay for Activators of ClpP; ATP-dependent Clp protease proteolytic subunit (Bacillus subtilis (strain 168)), P80244; purified B. subtilis ClpP, FRET peptide cleavage, 20 min; 1.9% of 340,000 active; Potency, µM (doses to about 57.5 µM), for the others: at the top dose activity change, negative = active; active = well fitted falling curve with a large enough effect; inconclusive = small, poorly fitted or top-dose-only effect; inactive = no such curve, though single readings can be large or run the other way; also: potency is read from the fitted curve at half-maximal effect; the source files actives as falling curves though it sought activators and does not explain the sign; nearly all actives have a fitted effect of over 65% in size; many hits overshoot -100%
Target sequence (P80244 whole entry, looked up): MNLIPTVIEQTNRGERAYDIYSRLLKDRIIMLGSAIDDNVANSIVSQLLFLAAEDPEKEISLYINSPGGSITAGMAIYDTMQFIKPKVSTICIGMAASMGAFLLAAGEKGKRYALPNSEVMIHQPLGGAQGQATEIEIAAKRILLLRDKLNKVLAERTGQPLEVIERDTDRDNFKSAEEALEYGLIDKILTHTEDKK
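Purified B. subtilis ClpP, 10 microg/mL final in Tris/HCl pH8 with KCl, BSA, glycerol and Tween-20, cleaved an Abz/nitrotyrosine-quenched decapeptide. Fluorescence (ex 320, em 430) was read at 0 and 20 min at room temperature. Delta was normalized to 5.8 microM ADEP and DMSO/no-enzyme controls.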
gsp agonist: qHTS for Agonist of gsp, the Etiologic Mutation Responsible for Fibrous Dysplasia/McCune-Albright Syndrome: qHTS; 0.13% of 340,000 active; gsp mutant cells, cAMP HTRF, 30 min; control for the full effect not named in the record; Potency, µM (series often up to 76.9 µM), for the others: top-dose activation (cAMP increase), most hits filed as activators; AID 624287, 2012; active = well fitted activation curve with a large enough effect; inconclusive = small, poorly fitted or top-dose-only effect, or another doubt; inactive = no such curve, though single readings can be large or run the other way; cell line not stated here;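 also: phosphodiesterase inhibitor Ro 20-1724 added with compounds to block cAMP breakdown; potency is read from the fitted curve at half-maximal effect; nearly all actives have a fitted effect of over 60% in size; about a fifth of the inactives were tested at one dose only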
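Cells in DMEM/10% FBS with G418 were pretreated with compounds in DMSO plus […] (300 uM stock) for 30 min at 37C. cAMP was measured by HTRF (cAMP-d2 plus anti-cAMP antibody-K) after 30 min at room temperature.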
TRPV1 potentiator: HTS Assay for Compounds that Act as Potentiators of the Vanilloid Receptor 1. Transient receptor potential cation channel subfamily V member 1 (Homo sapiens), Q8NER1. TRPV1-expressing cells, Fluo-8 calcium influx, capsaicin EC20 potentiation; host cell line not named in the record; control for the full effect not named in the record. potentiation, % at 8.33 µM. 0.02% of 320,000 active; active means potentiation above 80%; inconclusive means 30% to 80%; inactive means below 30%; also: 0% is about no effect
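Cells expressing TRPV1 were dye-loaded with Fluo-8 and read kinetically: 10 s baseline, 3 min after compound (agonist portion), then 2 min after EC20 capsaicin (allosteric enhancer portion). Calcium-bound dye fluorescence at 480/520 nm.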
Starred values were filed as active, the others as inactive; ? = inconclusive; . = no result given; & = joins results of further samples; [ ] = remark or other dose. A portion of the library, so the mix of outcomes need not match the whole.

Every second line gives: Sfp PPTase inh	Menin MLL FP FL	gsp antagonist	D2 potentiator	ClpP mod	gsp agonist	TRPV1 potentiator
1	COC(=O)C1=C(c2ccc(Cl)c(C(F)(F)F)c2)C[C@@H]2CC[C@H]1N2C(=O)N1CCOCC1
  .	.	2%	-4	-1.2%	35%	-23
2	CC(=O)OC1N=C(c2ccc(Cl)cc2)c2cc(Br)ccc2NC1=O (centres undefined)
  -12%	2.7	-6%	-2	-2.1%	-18%	16
3	COc1ccccc1CNCCc1cccc(Cl)c1
  .	.	.	-28	-1.3%	-30%	.
4	O=C1Nc2cc(C(=O)N3CCC4(CC3)OCCO4)ccc2S/C1=C\c1ccccc1
  -4%	5.1	-6%	-19	-0.7%	4%	-3
5	Cc1ccc(/C=C2\C(=O)NC(=S)N(c3cccc(F)c3)C2=O)o1
  18µM*	?	-7%	11	-2.9%	-10%	-12
6	CN(C)CCN=Cc1c(O)n(-c2cccc3ccccc23)c(=O)[nH]c1=O
  7%	5.6	12%	1	-0.4%	-6%	3
7	CN/C=C(/Cl)P(=O)(OC(C)C)OC(C)C
  .	.	0%	-16	.	-1%[15.4 µM]	.
8	CC(=O)OC1C2(CC3N4C(=O)C5(CO)SSC4(CC31O)C(=O)N5C)OC(C)C(C)(C)C2=O (centres undefined)
  .	.	4%	-53	-1.5%	0%	.
9	O=C(Oc1c(Cl)cc(Cl)c2ccccc12)N1CCCCC1
  -15%	0.6	-15%	-33	-5.1%	?	-4
10	C=CC[C@H](CC(=O)N(CCO)Cc1ccccc1)C(=O)NC[C@H](OC(=O)[C@@H](CC=C)CC(=O)OC(C)(C)C)c1ccccc1
  .	.	?	-4	2.1%	-14%	.
11	O=[N+]([O-])c1ccc(N2CC2)c([N+](=O)[O-])c1
  .	.	8%	-4	.	43%	.
12	O=C(c1ccc(C(F)(F)F)cc1)C1CCCN(Cc2ccncc2)C1 (centres undefined)
  -4%	5.0	-5%	-5	.	-2%[15.4 µM]	-12
13	CC(=O)OC1(c2ccccc2)CCN(C)C(C)C1C (centres undefined)
  14%	2.1	-4%	0	-0.7%	0%	-5
14	Cc1ccccc1-n1c(O)c(C=NCCN2CCOCC2)c(=O)[nH]c1=O
  22%	5.4	7%	-9	-1.5%	-33%[inhibitor]	2
15	O=C(NC1CCCCC1)N1C[C@H]2C[C@@H](C1)c1cccc(=O)n1C2
  9%	0.5	9%	4	.	2%	1
16	CCCCn1c(O)c(C(C)=NCC2CCCO2)c(=O)[nH]c1=O (centres undefined)
  17%	4.8	12%	-4	-2.1%	-1%	6
17	Cc1ccccc1CN1CCNCC1
  1%	-1.2	9%	-11	.	0%	1
18	CCOCCN1CCN(c2nnc3n2-c2ccc(Cl)cc2C(c2ccccc2Cl)=NC3)CC1
  5%	0.9	-7%	-22	0.5%	-7%	15
19	CCOC(=O)c1c(C)n(Cc2ccccc2)c2ccc(OCC(O)CNC(C)(C)C)cc12 (centres undefined)
  -10%	3.4	18%	-21	.	12%[15.4 µM]	-4
20	COC/C=C1\CN2C3C[C@@H]1[C@H]1COC4=Nc5cc(OC)c(OC)c(OC)c5[C@@]43C[C@@H]12
  .	.	9%	-24	5.0%	.	.
21	N#CC(C(=O)C12CC3CC(CC(C3)C1)C2)c1nc2ccccc2[nH]1 (centres undefined)
  23%	0.8	-26%	4	?	-77%[inhibitor]	-15
22	c1ccc(-c2nn(-c3ccccc3)[n+](-c3ccccc3)n2)cc1
  .	.	-7%	-21	?	11%	.
23	COc1cccc(CNCCc2ccc(F)cc2)c1
  -9%	5.8	14%	-8	0.1%	0%	19
24	Nc1ccc(-c2ccccc2)cc1
  .	.	-4%	-6	?	1%	.
25	COc1ccc(CN2CCN(Cc3ccccc3OC)CC2)cc1
  ?	-7.1	7%	-22	0.3%	-2%	0
26	Fc1ccc(C2=CCN(C(c3ccc(Cl)cc3)c3nnnn3Cc3ccccc3)CC2)cc1 (centres undefined)
  7%	5.0	3%	3	.	0%	-10
27	CC(=O)OC(C)(C)/C=C/C(=O)[C@](C)(O)C1[C@H](O)C[C@@]2(C)C3CC=C4C(C[C@H](O)C(=O)C4(C)C)[C@]3(C)C(=O)C[C@]12C (some centres undefined)
  .	.	17%	-9	0.5%	.	.
28	CC1(C)CC(=O)C(C=NCCN2CCN(C(=O)Cc3ccc(Cl)cc3)CC2)=C(O)C1
  10%	5.9	4%	-3	-0.2%	-2%	7
29	COc1ccc(OC)c(CC(=O)O)c1
  7%	3.3	7%	-2	-6.1%	-30%[inhibitor]	5
30	C=CC(=O)OCCO
  .	.	6%	-8	.	-7%[15.4 µM]	.
31	O=C(c1ccncc1)C12CN3CN(CN(C3)C1)C2
  28%	3.7	4%	-13	0.6%	5%	-5
32	CCOc1ccc(N=Cc2c(O)n(Cc3ccccc3)c(=S)[nH]c2=O)cc1
  8%	2.3	-10%	5	-2.9%	2%[15.4 µM]	.
33	C=CCn1c(O)c(/C=N/N2CCCCC2)c(=O)[nH]c1=O
  0%	3.1	3%	-8	.	-24%[15.4 µM]	-4
34	CCN(CC)c1ccc(N=Cc2c(O)n(CCC3=CCCCC3)c(=O)[nH]c2=O)cc1
  -23%	?	4%	3	-1.4%	?	-6
35	O=c1[nH]c(=O)n(-c2cccc(Cl)c2)c(O)c1C=NCCCN1CCOCC1
  9%	-0.7	4%	-10	-4.1%	-1%	1
36	C=CCN(CC#CCOc1ccccc1OC)CC=C
  ?	-0.1	.	.	.	.	10
37	O=C1NC(=O)C2(Cc3ccccc3N3CCOCC32)C(=O)N1c1ccccc1 (centres undefined)
  19%	2.2	3%	-8	0.2%	11%	-1
38	Cc1ccc(S(=O)(=O)N2CCN(C(=O)COC(=O)Cc3ccccc3)CC2)c(C)c1
  .	.	-5%	21	.	6%[15.4 µM]	17
39	COc1ccc(-n2nc(C(=O)NCC(=O)N3CCC4(CC3)OCCO4)c3ccccc3c2=O)cc1
  8%	-3.1	0%	-2	.	31%[15.4 µM]	2
40	CC1CCN(C(=O)CCl)CC1
  14%	4.3	-4%	-8	-0.2%	-21%	17
41	COc1ccc(CCn2c(O)c(C=NCc3cccnc3)c(=O)[nH]c2=O)cc1OC
  24%	0.5	-9%	-3	0.8%	1%	13
42	c1ccc(C2NCCc3[nH]cnc32)cc1 (centres undefined)
  23%	4.8	8%	12	-0.5%	4%	4
43	O=[N+]([O-])c1cccc2c([N+](=O)[O-])cccc12
  .	.	-8%	.	-3.8%	.	2
44	O=C(N/N=C/c1c(O)n(Cc2ccc(F)cc2)c(=S)[nH]c1=O)c1ccncc1
  -16%	17	-7%	-5	.	-13%	.
45	O=c1[nH]c(=S)n(Cc2ccc(F)cc2)c(O)c1C=NCc1cccnc1
  8%	1.8	5%	22	-0.4%	?	0
46	CCOC(=O)c1ccc2[nH]c(-c3ccc(S(=O)(=O)F)cc3)cc(=O)c2c1
  3%	-1.6	5%	3	?	0%	15
47	CCCCn1c(O)c(C(C)=NCc2ccc3c(c2)OCO3)c(=O)[nH]c1=O
  4%	4.3	?	-20	-0.4%	-3%[15.4 µM]	8
48	CCCC(CCC)C(=O)OC[N+](C)(C)CCOC(=O)C(O)(c1ccccc1)C1CCCC1 (centres undefined)
  11%	2.9	-5%	-11	0.8%	-32%	-2
49	O=C1NC(=O)C(CCc2ccncc2)(CCc2ccncc2)C(=O)N1CCc1ccccc1
  -8%	2.9	-2%	0	.	?	11
50	CCC(=O)c1c(O)n(C2CCCCCC2)c(=O)[nH]c1=O
  7%	?	-5%	-13	-1.2%	-15%	12
51	C[N+]1(C)C2CC(OC(=O)C(CO)c3ccccc3)CC1C1OC12 (centres undefined)
  14%	2.9&-0.6&-0.7	10%	-9	-3.9%	.	-3
52	CCCCNc1ccncc1S(=O)(=O)NC(=O)NC(C)C
  26%	1.3	-11%	8	-3.2%	?	10
53	O=C(COc1ccc(Br)cc1)N1CCN(Cc2ccc3c(c2)OCO3)CC1
  ?	-7.4	3%	-22	0.8%	-57%[inhibitor]	-10
54	COC(=O)C1=C(c2ccc(S(C)(=O)=O)cc2)C[C@@H]2CC[C@H]1N2C(=O)NCc1ccco1
  .	.	-3%	-29	-0.4%	.	.
55	O=C(c1ccco1)c1cn(Cc2ccc(Cl)cc2)c2ccccc12
  1%	-0.2	3%	-1	?	34%	5
56	Cn1c(O)c(C=NCc2cccs2)c(=O)n(C)c1=O
  5%	1.9	-1%	6	-1.1%	5%	-13
57	CC(C)(C)n1cc(C(=O)c2ccccc2OCCCF)cn1
  16%	6.4	-5%	2	.	2%	0
58	COC(=O)[C@@H]1C[C@]2(C(=O)O)c3ccccc3N(OOSc3ccccc3)[C@@H]2N1C(=O)OC
  .	.	6%	-12	1.4%	10%	.
59	OCCN(CC#CC(O)(c1ccccc1)C1CCCC1)CCO (centres undefined)
  11%	-0.9	5%	-2	0.3%	-74%[inhibitor]	9
60	COc1ccc(C2=CC(c3ccc4c(c3)OCO4)c3c(c4ccccc4oc3=O)O2)cc1OC (centres undefined)
  .	.	-3%	-11	?	7%	.
61	O=C(CF)NC(Nc1cccc2cccnc12)C(Cl)(Cl)Cl (centres undefined)
  18%	7.0	-28%	15	-1.1%	3%	6
62	CC(=O)NC(C)Cc1ccccc1 (centres undefined)
  12%	1.8	-5%	-10	-0.6%	-1%	-16
